Screening results as filed in PubChem.
D2 ag = human D2 receptor agonism in beta-arrestin assay | DiscoveRx PathHunter D2 beta-arrestin, luminescence, 90 min; 100% = 57 uM dopamine signal | activation, % (test concentration not listed) | 0.084% of 360,000 active; in the data active = activation above about 40%; inconclusive = about 15% to 40%; inactive = below about 15%; note: compound concentration not given in the record; the text of the record calls up to 30% inactive
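DiscoveRx PathHunter D2 beta-arrestin cells (2,100/well) attached overnight, then compound-stimulated 90 min at 37 C in HBSS/10 mM HEPES/0.1% Tween-20 buffer; beta-galactosidase complementation read by luminescence after 1 h at ambient temperature. Dopamine 57 uM final (EC100) as control.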
CtBP-E1A blk = CtBP/E1A binding inhibition; AlphaScreen GST-E1A/His-CtBP binding, 1536-well; hits give low values; control for the full effect not named in the record; activity change, % (no concentration beside the values); 0.49% of 340,000 active; AID 651724; in the data active means activity change below about -65%; inconclusive means about -30% to -65%; inactive means above about -30%; note: % is set by controls: 0 for no effect and ±100 for the full control effect; compound concentration not given in the record
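Protein mix (5X: 125 nM each GST-E1A, His-CtBP) was incubated with pinned compound 2 h at 37 deg C in dark, in 50 mM Tris pH 8.0 buffer with 300 mM NaCl. Glutathione donor and nickel acceptor beads followed; AlphaScreen signal read after 1 h.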
Six1-Eya2 inh = Six1/Eya2 interaction inhibition | Q15475+O00167 | AlphaScreen GST-Six1/His-Eya2 binding, biochemical; hits give low values; control for the full effect not named in the record | activity change, % (concentration not given with the values) | 0.56% of 360,000 active; in the data active = activity change below about -65%; inconclusive = about -30% to -65%; inactive = above about -30%; note: % is set by controls: 0 for no effect and ±100 for the full control effect
Target sequence (O00167 whole entry, looked up): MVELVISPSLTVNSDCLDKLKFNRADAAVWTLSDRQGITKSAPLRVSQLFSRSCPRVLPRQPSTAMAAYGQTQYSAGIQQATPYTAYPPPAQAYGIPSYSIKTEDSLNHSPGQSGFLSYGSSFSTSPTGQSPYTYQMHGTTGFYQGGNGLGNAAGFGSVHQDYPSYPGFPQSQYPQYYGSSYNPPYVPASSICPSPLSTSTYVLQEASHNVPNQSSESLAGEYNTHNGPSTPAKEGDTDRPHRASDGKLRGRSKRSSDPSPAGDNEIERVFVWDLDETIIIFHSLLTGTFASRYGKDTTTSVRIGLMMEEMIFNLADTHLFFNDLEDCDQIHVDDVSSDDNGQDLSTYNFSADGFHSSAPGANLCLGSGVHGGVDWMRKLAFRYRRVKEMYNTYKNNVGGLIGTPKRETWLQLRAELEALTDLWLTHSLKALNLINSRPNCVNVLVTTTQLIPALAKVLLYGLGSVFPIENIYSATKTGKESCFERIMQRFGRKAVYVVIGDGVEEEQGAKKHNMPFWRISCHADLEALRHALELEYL
Target sequence (Q15475 whole entry, looked up): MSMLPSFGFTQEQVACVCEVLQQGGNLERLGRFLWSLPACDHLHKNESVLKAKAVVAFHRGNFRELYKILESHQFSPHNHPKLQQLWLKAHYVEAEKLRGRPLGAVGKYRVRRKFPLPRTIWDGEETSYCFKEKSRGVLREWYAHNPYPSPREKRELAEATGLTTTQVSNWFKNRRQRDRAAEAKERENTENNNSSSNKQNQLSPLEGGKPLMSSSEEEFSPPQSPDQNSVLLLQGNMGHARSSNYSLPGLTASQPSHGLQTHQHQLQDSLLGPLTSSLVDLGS
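Six1/Eya2 binding was read as AlphaScreen signal after compounds were pinned into GST-Six1 plus His-tagged Eya2 (5X stock 250/500 nM) in pH 8.0 Tris/NaCl/TCEP buffer, beads added, then incubated 1 h, 37 C, dark.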
PINK1 expr mod = PINK1 expression modulation | PINK1 immunofluorescence, high-content cytometry, 24 h | Potency, µM (series often up to 76.6 µM), for inactives: at the top dose activation (PINK1 increase), usual class: activators | 0.2% of 410,000 active | AID 624263; active = well fitted activation curve with a large enough effect; inconclusive = small, poorly fitted or top-dose-only effect; inactive = flat fitted curve, though single readings scatter; cell line not stated here;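 note: potency is the fitted concentration of half-maximal effect; % of control where 0% means no effect; nearly all actives have a fitted effect of over 65% in size; a mitochondrial uncoupler was the plate control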
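Cells are seeded, rested 12 hours, then given compound at five concentrations or DMSO for 24 hours. After fixation, blocking and antibody staining, PINK1 amount and mitochondrial localization are scored; CCCP serves as control.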
TRPML1 agonist = human mucolipin-1 channel agonism; Q9GZU1; TRPML1-expressing cells, Ca2+ dye fluorescence, FDSS; host cell line not named in the record; reference of the full effect not given here; activation, % (test concentration not listed); 0.12% of 410,000 active; AID 624414; in the data active = activation above about 50%; inconclusive = about 30% to 50%; inactive = below about 30%; note: 0% is about no effect; the text of the record puts the active cut at 80%
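Agonist activity was taken from a 110 s kinetic Ca2+ dye read on the FDSS after pinning compounds onto TRPML1-DL cells. The cells were seeded at 1,500/well with Tet inducer, incubated about 16 h, then dye-loaded at room temperature.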
TRPML1 inh = inhibitors of human TRPML1 channel; activity change, negative = inhibition, % (concentration not given with the values); 0.02% of 390,000 active; TRPML1-inducible cells, Ca2+ dye fluorescence, FDSS; hits give low values; inhibition of EC80 agonist-evoked calcium signal; Q9GZU1; AID 624415; in the data active means activity change below about -50%; inconclusive means about -30% to -50%; inactive means above about -30%;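 note: stimulus is agonist 54-4 at its EC80 concentration; % is set by controls: 0 for no effect and ±100 for the full control effect; compound concentration not given in the record; the text of the record puts the active cut at -80%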
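Calcium fluorescence in TRPML1-DL cells induced overnight with Tet: a 110 s read after compound pin addition, then a 110 s antagonist read after challenge with 54-4 at 4 uM final (EC80).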
Starred values were filed as active, the others as inactive; [ ] = dose if it differs, or a comment.

COc1cccc(-c2nc(CS(=O)(=O)CC(=O)NCCCOC(C)C)c(C)o2)c1 was read as D2 ag -0.7, CtBP-E1A blk -0.2, Six1-Eya2 inh 4.0, PINK1 expr mod 1.8%, TRPML1 agonist 0.2 and TRPML1 inh -23.1.
For CCCn1c(=S)[nH]c2cc(Cl)ccc21 the results were D2 ag -4.8, CtBP-E1A blk 4.9, Six1-Eya2 inh -1.6 and PINK1 expr mod -0.1%.
For Cn1ncc2c(O/N=C(\N)c3ccc(C(C)(C)C)cc3)ncnc21 the results were D2 ag 85.9*, CtBP-E1A blk -0.6, Six1-Eya2 inh -6.5, PINK1 expr mod -0.6%, TRPML1 agonist 2.7 and TRPML1 inh -16.1.
For CCc1cc(=O)oc2cc(OC(C)C(=O)NCc3ccccn3)ccc12 (configuration not stated) the results were D2 ag 0.9, CtBP-E1A blk 4.6, Six1-Eya2 inh 0.0, PINK1 expr mod 0.5%, TRPML1 agonist -0.7 and TRPML1 inh 3.6.
`COC(=O)c1[nH]c2c(c1C)C(=O)CC(c1ccccc1)C2` (configuration not stated) gave D2 ag -1.1, CtBP-E1A blk 2.6, Six1-Eya2 inh 4.2, PINK1 expr mod 19.8%[38.3 µM], TRPML1 agonist 0.2 and TRPML1 inh 1.2.
`CC1CCN(CCC(=O)N/N=C/c2ccc([N+](=O)[O-])cc2)CC1` gave D2 ag -2.8, CtBP-E1A blk 0.6, Six1-Eya2 inh 4.3, PINK1 expr mod -1.0%, TRPML1 agonist 0.4 and TRPML1 inh 6.7.
O=C1C(=NO)CC(c2ccccc2)N1c1ccccc1 (configuration not stated) was read as D2 ag 1.4, CtBP-E1A blk 7.8, Six1-Eya2 inh 10.4, PINK1 expr mod -3.9%, TRPML1 agonist 1.7 and TRPML1 inh 11.6.
O=c1c2c(nc3nc(SCc4ccccc4)[nH]n13)CCC2 was read as D2 ag 0.1, CtBP-E1A blk 2.2, Six1-Eya2 inh -0.7, PINK1 expr mod 5.2%[38.3 µM], TRPML1 agonist -0.3 and TRPML1 inh 2.1.
O=C(NC1CCN(Cc2ccccc2)CC1)C1CCN(S(=O)(=O)c2cccc3cccnc23)CC1 was read as D2 ag -4.0, CtBP-E1A blk -22.1, Six1-Eya2 inh 6.1, PINK1 expr mod 1.9%, TRPML1 agonist 0.1 and TRPML1 inh -5.3.
Screening OCCCc1nc2n(n1)C(c1ccccc1)C=C(c1ccc(F)cc1)N2 (configuration not stated) returned D2 ag -2.7, CtBP-E1A blk -0.5, Six1-Eya2 inh -0.4, PINK1 expr mod 3.2%[38.3 µM], TRPML1 agonist 15.7 and TRPML1 inh 8.2.
Screening Cc1ccccc1CNS(=O)(=O)c1c(C)[nH]c(C)c1C(=O)N1CCCCC1 returned D2 ag -4.8, CtBP-E1A blk 0.0, Six1-Eya2 inh 18.3, PINK1 expr mod -0.6%, TRPML1 agonist -0.2 and TRPML1 inh 1.2.
CCOc1ccc(CCNC(=O)C2CCCN(c3nn4c(=O)cc(C)nc4s3)C2)cc1 (configuration not stated) was read as D2 ag -3.7, CtBP-E1A blk -10.9, Six1-Eya2 inh 0.6, PINK1 expr mod -1.6%, TRPML1 agonist 1.3 and TRPML1 inh -0.2.
O=C(CNCc1ccc(F)cc1)Nc1ccc(S(=O)(=O)N2CCOCC2)cc1 was read as D2 ag -3.7, CtBP-E1A blk 6.4, Six1-Eya2 inh -1.2, PINK1 expr mod -1.0%, TRPML1 agonist -0.2 and TRPML1 inh 1.0.
Screening O=C(COC(=O)c1cc(S(=O)(=O)NCc2ccccc2)ccc1O)NCc1ccccc1 returned D2 ag -2.0, CtBP-E1A blk 2.4, Six1-Eya2 inh -2.6, PINK1 expr mod -2.6%, TRPML1 agonist -1.4 and TRPML1 inh -1.7.
`COC(=O)c1ccccc1NC(=O)/C=C/c1cc(OC)c(OC)c(OC)c1` gave D2 ag -1.6, CtBP-E1A blk 4.0, Six1-Eya2 inh -3.5, PINK1 expr mod 3.7%, TRPML1 agonist 1.8 and TRPML1 inh 19.0.

The final two records of the section above open the next one:
Screening O=C(COC(=O)c1cc(S(=O)(=O)NCc2ccccc2)ccc1O)NCc1ccccc1 returned D2 ag -2.0, CtBP-E1A blk 2.4, Six1-Eya2 inh -2.6, PINK1 expr mod -2.6%, TRPML1 agonist -1.4 and TRPML1 inh -1.7.
`COC(=O)c1ccccc1NC(=O)/C=C/c1cc(OC)c(OC)c(OC)c1` gave D2 ag -1.6, CtBP-E1A blk 4.0, Six1-Eya2 inh -3.5, PINK1 expr mod 3.7%, TRPML1 agonist 1.8 and TRPML1 inh 19.0.
Screening CCCCCCn1c(=O)n2n(c1=O)[C@@H]1CN(S(=O)(=O)c3ccc(C)cc3)C[C@]1(O)[C@@H](OC(=O)NCc1ccc(OC)c(OC)c1)C2 returned D2 ag -7.8, CtBP-E1A blk 0.3, Six1-Eya2 inh -3.9, PINK1 expr mod 1.3%, TRPML1 agonist 1.2 and TRPML1 inh -5.5.
For CC1CCN(CC(C)OC(=O)c2ccco2)CC1 (configuration not stated) the results were D2 ag 2.0, CtBP-E1A blk 0.7, Six1-Eya2 inh 6.3, PINK1 expr mod 2.7%, TRPML1 agonist 0.5 and TRPML1 inh -0.3.
CCc1nnc2c(N(C)S(=O)(=O)c3ccc(C)cc3)nc3ccccc3n12 was read as D2 ag 0.6, CtBP-E1A blk 3.7, Six1-Eya2 inh 3.8, PINK1 expr mod 2.5%, TRPML1 agonist -0.2 and TRPML1 inh -4.6.
COC(C)(C)[C@]12CC(O)(C(C)C)ON1[C@H]1CCCCC1N2O (some centres not stated) was read as D2 ag -0.3, CtBP-E1A blk -4.4, Six1-Eya2 inh -4.8, PINK1 expr mod -1.5%, TRPML1 agonist 0.8 and TRPML1 inh 13.5.
CN(C(=O)Cn1ncc2c1-c1ccccc1OC2)c1ccc(Br)cc1 was read as PINK1 expr mod -0.4%, TRPML1 agonist -0.1 and TRPML1 inh 32.7.
Screening CC1(C)C2CC=C(/C=N/NC(=O)c3ccc(Cl)cc3)C1C2 (configuration not stated) returned D2 ag -5.8, CtBP-E1A blk -7.8, Six1-Eya2 inh -1.9, PINK1 expr mod inconclusive, TRPML1 agonist -0.4 and TRPML1 inh -27.4.
`O=C(NCCOc1ccccc1)C1CCC(=O)N(C2CCCCCC2)C1` (configuration not stated) gave D2 ag -6.6, CtBP-E1A blk 8.0, Six1-Eya2 inh 2.3, PINK1 expr mod 2.5%, TRPML1 agonist 0.0 and TRPML1 inh 7.7.
COc1ccccc1CNS(=O)(=O)c1cc2c3c(c1)C(C)C(=O)N3CCC2 (configuration not stated) was read as D2 ag 7.0, CtBP-E1A blk 1.6, Six1-Eya2 inh 2.1, PINK1 expr mod -1.1%, TRPML1 agonist -0.3 and TRPML1 inh 15.6.
O=C1OCC(CO)(CO)N=C1NNc1ccccc1[N+](=O)[O-] was read as D2 ag -2.5, CtBP-E1A blk 0.1, Six1-Eya2 inh 5.3, PINK1 expr mod 0.7%, TRPML1 agonist 0.3 and TRPML1 inh 1.0.
For CCC(C)(NC(=O)c1ccccn1)C(=O)NC1CCCC1 (configuration not stated) the results were D2 ag -7.4, CtBP-E1A blk 7.0, Six1-Eya2 inh -3.9, PINK1 expr mod 1.2%, TRPML1 agonist 0.7 and TRPML1 inh 17.9.
`Clc1cccc(-c2nnc(SCc3nc4ccccc4[nH]3)n2Cc2ccco2)c1` gave D2 ag -2.7, CtBP-E1A blk -8.7, Six1-Eya2 inh -6.1, PINK1 expr mod -1.7%, TRPML1 agonist 0.0 and TRPML1 inh -5.6.
For CC(c1nc2ccccc2[nH]1)N(C(=O)C1=NNC(=O)CC1)c1ccccc1 (configuration not stated) the results were D2 ag -3.0, CtBP-E1A blk 1.5, Six1-Eya2 inh -6.9, PINK1 expr mod 1.0%, TRPML1 agonist 0.0 and TRPML1 inh 0.4.
COc1ccc(C(=O)n2nc(C)cc2Nc2ccccc2)cc1 was read as D2 ag 0.1, CtBP-E1A blk 5.2, Six1-Eya2 inh 5.1, PINK1 expr mod -0.1%, TRPML1 agonist 0.7 and TRPML1 inh 5.3.
Screening COc1ccc(N2C(=O)C3C(C2=O)C3(c2ccccc2)c2ccccc2)cc1 (configuration not stated) returned D2 ag 0.3, CtBP-E1A blk 7.5, Six1-Eya2 inh -0.5, PINK1 expr mod 4.7%, TRPML1 agonist 3.4 and TRPML1 inh -26.1.
For Cc1nnc(SCC(=O)NCc2ccccc2)s1 the results were D2 ag -0.7, CtBP-E1A blk 11.8, Six1-Eya2 inh 6.8, PINK1 expr mod 0.7%, TRPML1 agonist -0.1 and TRPML1 inh 4.7.
Cc1cc2n(n1)CCC(=O)N2Cc1ccc(C(=O)Nc2ccc(F)cc2F)cc1 was read as PINK1 expr mod 10.0%, TRPML1 agonist 0.2 and TRPML1 inh inconclusive.
For COc1ccc(-n2cccc2/C=C2\C(=N)N3N=C(C(C)C)SC3=NC2=O)cc1 the results were D2 ag -1.8, CtBP-E1A blk -3.0, Six1-Eya2 inh -9.4, PINK1 expr mod 0.9%, TRPML1 agonist 1.7 and TRPML1 inh 14.7.
Screening COCCCNC(=O)CS(=O)Cc1nc(-c2cccc(C)c2)oc1C (configuration not stated) returned PINK1 expr mod 0.2%, TRPML1 agonist -1.1 and TRPML1 inh 30.1.
For CC(C)n1c(SCC(=O)Nc2nncs2)nnc1-c1ccco1 the results were D2 ag 0.4, CtBP-E1A blk -0.6, Six1-Eya2 inh inconclusive, PINK1 expr mod -0.1%, TRPML1 agonist 0.5 and TRPML1 inh 14.9.
`CCCC1O[C@@H]2C[C@H]3[C@@H]4CCC5=CC(=O)C=C[C@]5(C)[C@H]4[C@@H](O)C[C@]3(C)[C@]2(C(=O)CO)O1` (some centres not stated) gave D2 ag -2.5, CtBP-E1A blk 1.0, Six1-Eya2 inh -3.7, PINK1 expr mod 2.3%, TRPML1 agonist 0.8 and TRPML1 inh 3.2.
For COc1cccc(C2CC(c3cccs3)=NN2C(=O)CSc2nc3ccccc3s2)c1OC (configuration not stated) the results were D2 ag -4.9, CtBP-E1A blk -8.2, Six1-Eya2 inh -13.7, PINK1 expr mod 0.5%, TRPML1 agonist -0.4 and TRPML1 inh 10.6.
Screening CCOC(=O)N1CCN(C(=O)c2ccc(Cn3c(=S)[nH]c4cc(OCC)c(OCC)cc4c3=O)cc2)CC1 returned D2 ag 3.5, CtBP-E1A blk 2.1, Six1-Eya2 inh 1.7, PINK1 expr mod 4.4%, TRPML1 agonist -0.6 and TRPML1 inh -17.6.
Screening COc1ccccc1NC(=O)C1=C(C)Nc2nnnn2C1c1ccncc1 (configuration not stated) returned D2 ag -0.6, CtBP-E1A blk 0.2, Six1-Eya2 inh 0.6, PINK1 expr mod -3.4%, TRPML1 agonist -0.9 and TRPML1 inh 4.5.
For CCOc1cc(/C=N/NC(=O)c2nnn(-c3nonc3N)c2C)ccc1OCc1ccc(C)cc1 the results were D2 ag -2.2, CtBP-E1A blk 0.2, Six1-Eya2 inh 1.5, PINK1 expr mod 6.6%, TRPML1 agonist -0.3 and TRPML1 inh 4.6.
